# Compound activity (PubChem BioAssay)
# miR-21 reporter – raises the signal of a miR-21 reporter; HeLa miR-21 FLuc reporter, luciferase, 48 h; Potency, µM (doses to about 38.3 µM), for the others: at the highest dose reporter change, positive = more light; 340,000 tested, under 10 active; AID 2288; active = well fitted rising curve with a large enough effect; inconclusive = small, poorly fitted or top-dose-only effect; inactive = no such curve, though single readings can be large or run the other way;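 also: % of control where 0% means no effect; miR-21 action dims this reporter so a rising signal means less miR-21 action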
#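 Compounds were titrated across several concentrations (up to approximately 40 uM) and incubated 48 hours with HeLa miR-21-FLuc reporter cells (miR-21 target sequence downstream of FLuc, endogenous miR-21). Readout was firefly luciferase luminescence after lytic detection reagent.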
# GLA inh pH 4.5 – alpha-galactosidase A (human) inhibition, pH 4.5 | P06280 | purified enzyme, 4-MU-alpha-Gal fluorescence, pH 4.5 | 230,000 tested, under 10 active | activity change, negative = inhibition, % at 105 µM; inconclusive = small, poorly fitted or top-dose-only inhibition, or a rising curve; inactive = flat fitted curve, though single readings scatter; no compound was filed as active;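 also: 0% = full activity with enzyme and -100% = basal without enzyme; dose as in the result columns while the protocol names 77 µM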
# Target sequence (P06280 whole entry, looked up): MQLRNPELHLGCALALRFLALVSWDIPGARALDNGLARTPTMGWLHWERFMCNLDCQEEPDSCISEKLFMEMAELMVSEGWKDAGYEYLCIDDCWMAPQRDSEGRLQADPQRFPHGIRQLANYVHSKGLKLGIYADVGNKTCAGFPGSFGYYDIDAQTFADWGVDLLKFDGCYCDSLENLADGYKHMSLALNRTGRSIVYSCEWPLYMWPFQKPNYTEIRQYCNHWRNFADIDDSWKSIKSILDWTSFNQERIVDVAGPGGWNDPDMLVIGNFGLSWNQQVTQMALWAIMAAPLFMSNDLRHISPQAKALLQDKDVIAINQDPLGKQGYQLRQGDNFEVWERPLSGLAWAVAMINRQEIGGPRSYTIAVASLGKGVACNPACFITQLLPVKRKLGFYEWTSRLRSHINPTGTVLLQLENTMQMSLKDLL
# Rango-impB inh – prevents formation of the Rango-importin beta complex | Q14974 | Rango CFP/YFP FRET sensor + importin beta, 45 min | Potency, µM (doses to about 92.2 µM), for inactives: top-dose inhibition of complex formation | 340,000 compounds, 0.031% hits | AID 540263; active = rising FRET ratio curve, often small or poorly fitted; inconclusive = mostly compound fluorescence or quenching in the first reads; inactive = flat curves in all reads;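 also: potency is read from the fitted curve at half-maximal effect; 0% = DMSO wells and 100% = buffer wells lacking importin beta; nearly all actives have a fitted effect of over 15% in size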
#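 FRET biosensor Rango (snurportin 1 IBB between N-terminal EYFP and C-terminal Cerulean), 50 nM in PBS/1 mM DTT/0.02% Tween-20/0.1% BSA, preincubated 5 min RT with compound; 0.125 microM importin beta added, 45 min RT, CFP/YFP FRET ratio read.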
# Rango dissoc inh – inhibitors of RanGTP-induced Rango-importin beta complex dissociation. O95149+P62826. Biochemical FRET Rango-importin beta, RanGTP-induced dissociation. Potency, µM (doses to about 46.1 µM), for inactives: at the top dose activity change, negative = inhibition. 340,000 compounds, 0.071% hits. AID 540253; active means falling FRET ratio curve, often poorly fitted, with flat reads before Ran was added; inconclusive means other falling curves, or compound fluorescence or quenching; inactive means flat or rising ratio curve;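 also: potency is read from the fitted curve at half-maximal effect; % of control where 0% means no effect; nearly all actives have a fitted effect of over 45% in size; -100% = wells without RanGTP and RCC1; the record marks most hits as doubtful in a second field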
#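 Compounds preincubate 5 min with complex of recombinant Rango and importin beta in PBS with 1 mM DTT. Ran (0.6 uM) loaded with 2 mM GTP plus 0.2 uM RCC1 starts dissociation; FRET is recorded 45 min later.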
# Starred values were filed as active, the others as inactive; ? = inconclusive; . = no result given; & = joins results of further samples; [ ] = another dose, or the depositor's remark. A portion of the library; rates above refer to the full screens.
molecule | Rango dissoc inh | miR-21 reporter | Rango-impB inh | GLA inh pH 4.5
O=C(CN(Cc1ccccc1)C(=O)CCC(=O)Nc1nccs1)NCc1ccco1 | -4% | -2% | -0.9% | 5
COc1cccc(/C=N/N2CCN(c3ccncc3S(=O)(=O)N3CCCCC3)CC2)c1 | -4% | -2% | -0.7% | -5
Cc1ccsc1/C=N/NC(=O)CN1CCN(Cc2ccccc2)CC1 | 1% | -7% | 0.3% | -1
OC(COCc1ccccc1)CN1CCN(Cc2ccc3c(c2)OCO3)CC1 (configuration not stated) | 2% | -9% | 1.2% | -6
CC1=CC2=NC(=O)CC(C)(C(=O)N(CC(=O)NC3CCCC3)Cc3ccc(Cl)cc3)N2C=C1 (configuration not stated) | 5% | -1% | -2.0% | .
CCCc1c(C(=O)Nc2ccc(C(F)(F)F)cc2)cnn1-c1ccccc1 | -19% | -2% | -0.9% | -5
COc1cccc(C2N(c3ccccn3)C(=O)C3CCCN32)c1OC (configuration not stated) | 4% | -4% | 2.3% | -23
Cn1c(=NC(=O)CSCC(=O)N2CCCC2)sc2ccccc21 | 7% | -13% | -0.7% | 12
COC(=O)c1scc(S(=O)(=O)c2ccccc2)c1N | 19% | 0% | -1.2% | -1
Cc1ccc(OCCN(C)C(=O)C2CCC(=O)N(CCCN3CCCC3=O)C2)cc1 (configuration not stated) | 11% | 1% | -5.5% | .
COc1ccc(N(Cc2cc3ccc(C)cc3[nH]c2=O)S(=O)(=O)c2ccccc2)cc1 | ? | 16% | ? | .
O=C1C=C(NCc2ccccc2)c2ccccc2C1=O | 1% | ? | -0.6% | -2
Cc1nn(C)c(C)c1-c1c(C#N)c(N)nc2c1CCCCCC2 | 0% | -2% | 2.6% | 4
Cc1nn(CCC#N)c(NC(=O)c2ccc(Cl)cc2Cl)c1P(=O)(Nc1ccc([N+](=O)[O-])cc1)N1CCOCC1 (configuration not stated) | 0% | 0% | -2.2% | 1
O=C(Nc1ccc(F)cc1)c1cccnc1N1CCOCC1 | 7% | -5% | 7.3% | -3
O=C(CSc1nnc(Cc2ccccc2)n1Cc1ccco1)NC1CCCC1 | 5% | -1% | -2.6% | -1
COc1ccc(S(=O)(=O)N2CCCC2CNC(=O)C(=O)NCCc2ccccc2)cc1 (configuration not stated) | 5% | . | 1.3% | .
Cc1noc(C)c1COc1ccc(C(=O)OCC(=O)Nc2ccc(C(=O)N(C)C)cc2)cc1 | 3% | . | 1.6% | .
COC(=O)c1sccc1-c1ccc(/C=N/OC(=O)c2cccs2)o1 | 6% | -18% | 3.5% | -13
CN(C)S(=O)(=O)c1cccc(NC(=O)COC(=O)c2ccc3ccccc3n2)c1 | 20% | . | ? | .
O=C(Nc1ccccc1)N(CCc1ccncc1)C1CCCCC1 | -7% | . | -4.1% | .
CC(C)Sc1nc2c(c(=O)[nH]c(=O)n2C)n1CCc1ccccc1 | -15% | -7% | -0.3% | 0
COc1ccc(OCC(=O)NNC(=O)Cn2c(=O)cnc3ccccc32)cc1 | -4% | . | 4.3% | .
CCOc1ccc(S(=O)(=O)N2CCOCC2)cc1NC(=O)CSCc1ccc(C)cc1 | -16% | . | ? | .
C=C(C)COc1ccc2c(C)c(CC(=O)N3C[C@H]4C[C@@H](C3)c3cccc(=O)n3C4)c(=O)oc2c1 | -6% | -8% | 0.0% | .
CCOc1ccc(N(CC(=O)NC(C)C)C(=O)CCC(=O)Nc2ccccn2)cc1 | -4% | -2% | -0.7% | .
CC#CCN1c2ccccc2[C@]23C[C@@H](C(=O)OC)N(C(C)=O)C2=NC(C(=O)OC)=C(C(=O)OC)[C@H]13 | -4% | 9% | -2.2% | 7&0
C=CCN(CC=C)CC(=O)Nc1ccc(S(N)(=O)=O)cc1 | -10% | 1% | 2.9% | 2
O=C(CCCl)N1CCCC2(CCCCC2)C1 | 18% | 0% | -3.4% | 0
Cc1ccc(N(CC(=O)NCc2cccs2)S(=O)(=O)c2cccs2)cc1 | -2% | 1% | -0.3% | 0
O=C(OCc1ccc(Cl)c(Cl)c1)c1ccccn1 | 13% | -1% | 2.8% | 11
COCCCNC(=O)C1CCN(C(=O)Nc2ccc(Cl)cc2)CC1 | -8% | 1% | -0.5% | -3
COc1ccc(N(CC(=O)N2CCN(c3ccc(Cl)cc3)CC2)S(=O)(=O)c2c(C)noc2C)cc1 | -2% | 19% | ? | .
COc1ccc(/C=N/NC(=O)c2nc(-c3ccccc3)cc(-c3ccccc3)n2)cc1OC | -11% | -3% | ? | -2
CCCCCNc1nc2ccccc2nc1NS(=O)(=O)c1cccs1 | 16% | 0% | 0.8% | ?
CCOc1ccccc1-c1cc(-c2ccccc2)nc2c1c(=O)n(C)c(=O)n2C | -19% | 1% | -3.8% | -7
CC1CCN(S(=O)(=O)c2ccc(C(=O)NCc3ccco3)cc2)CC1 | -6% | -3% | -1.2% | 2
COc1ccc(NC2c3ccccc3C(=O)N2Cc2ccco2)cc1OC (configuration not stated) | 17% | -5% | -3.7% | -5
CCOC(=O)c1c(/N=C/C2C(=O)CC(C)(C)CC2=O)sc2c1CCCC2 | ? | 3% | ? | 7
O=C(COc1ccc(S(=O)(=O)NC2CCCC2)cc1)N1CCCCC1 | 17% | -5% | 1.3% | .
CCOc1ccc(-n2nnnc2SCC(=O)NNC(=O)c2ccco2)cc1 | 20% | -3% | 5.2% | 5
COc1ccc(-c2ccc(SCC(=O)NC3CCCCC3)nn2)cc1OC | -5% | -27% | ? | .
FC(F)(F)c1ccc(C2NCCc3sccc32)cc1 (configuration not stated) | ? | -41% | -5.2% | 8
Cc1ccc(/C=N/n2cnnc2)s1 | -5% | 0% | 2.3% | -25
COCCNC(=S)N(CCCN(C)C)Cc1cc2cc3c(cc2[nH]c1=O)OCCO3 | 5% | -10% | -0.5% | .
Cc1cccc(CN2CCN(Cc3cccc(-n4cccn4)c3)CC2CCO)n1 (configuration not stated) | 0% | 4% | 1.6% | -6
O=C(CCCOc1ccccc1)Nc1ccc(Br)cc1 | 13% | . | 2.1% | .
CC1=C(C(=O)N2CCCC(C(=O)c3cccc4ccccc34)C2)OCCO1 (configuration not stated) | -1% | 5% | -0.1% | 6
CC(=O)c1cccc(NC(=S)NC(=O)C(C)C)c1 | 0% | -21% | 0.0% | 11
Cc1ccc(-c2nc3c(c(=O)c4ccccc4n3C)c(=O)n2-c2ccccc2)cc1 | 28% | 0% | -5.9% | -1
Cn1ccc(/C=N/N=C2/NC(=O)CS2)n1 | -19% | -4% | -1.0% | -2
Cc1ccc(C)c(Cc2c(C)nc3c(C(=O)NCc4ccc5c(c4)OCO5)cnn3c2C)c1 | . | -1% | . | 0
Cc1c(C(=O)OCC(=O)NCc2ccco2)cccc1[N+](=O)[O-] | 17% | . | -1.2% | .
Cc1cc(/C=C2/NC(=O)NC2=O)c(C)n1C | -16% | 1% | -0.2% | -14
COc1ccc(Cl)cc1NC(=O)CN1C(=O)CSC1=O | -8% | -2% | -0.3% | 2
CCCC(C)C(=O)Nc1cc([N+](=O)[O-])ccc1F (configuration not stated) | -10% | -3% | -1.2% | 5
CCOc1ccc(/C=N/NC(=O)c2ccccc2C)cc1CN1CC2CC(C1)c1cccc(=O)n1C2 (configuration not stated) | 13% | . | 5.4% | .
CCN(c1ccccc1)S(=O)(=O)c1cc(C(=O)Nc2ccc(Br)cc2)ccc1F | -7% | ? | 4.6% | -11
O=C(c1ccco1)N1CCN(C(=O)c2ccccc2[N+](=O)[O-])CC1 | -3% | 0% | -2.8% | 8
C=CCNC(=O)/C(C#N)=C\c1cc(Cl)c(O)c(OCC)c1 | ? | 1% | ? | -13

# (further entries)
molecule | Rango dissoc inh | miR-21 reporter | Rango-impB inh | GLA inh pH 4.5
C[C@H](NC(=O)Nc1cccc(C(F)(F)F)c1)C(=O)O | 17% | -16% | -4.4% | 5
OC(COC(c1ccccc1)c1ccccc1)CN1CCN(c2cccc(Cl)c2)CC1 (configuration not stated) | -8% | 0% | -0.1% | .
CCOC(=O)N1CCN(C(=O)CSc2nnc(COc3ccccc3)o2)CC1 | -7% | -6% | 0.4% | -4
COc1ccc(C(CC(=O)N2CCOCC2)c2c(OC)cc(OC)c3c(-c4ccccc4)cc(=O)oc23)cc1 (configuration not stated) | -1% | -3% | 0.4% | -6
Cc1ccc(S(=O)(=O)N(C)C)cc1NC(=S)NC12CC3CC(CC(C3)C1)C2 | -6% | -2% | -1.8% | -6
O=C(NCc1ccccc1)C(c1ccccc1)N(Cc1ccc2c(c1)OCO2)C(=O)Cc1cccs1 (configuration not stated) | 1% | -2% | 5.3% | 5
Cc1ccccc1OC(=O)CCC(=O)OCCCC(F)(F)C(F)(F)F | -26% | -4% | 0.8% | -10
Cc1ccc(C(C)NC(=S)NC2CCCCC2)c(C)c1 (configuration not stated) | -10% | 15% | -2.7% | .
O=C(CCNC(=O)OCc1ccccc1)NC1CCCCC1 | -1% | -5% | 6.0% | -1
CC(=O)N(C)c1ccc(N=NC2C(=O)N(C(N)=S)N=C2C)cc1 (configuration not stated) | 7% | -28% | -0.1% | .
Cc1ccc2c(Cl)c(C)c(N3CCCCC3)nc2n1 | -1% | -11% | 1.3% | -5
C/C(=N\NC(=O)c1ccc2c(c1)OCCO2)c1ccccc1 | 4% | 27% | -2.6% | -1
O=C1NC(c2ccccc2O)Nc2ccccc21 (configuration not stated) | 0% | -5% | -6.0% | .
CC/C(=N\NC(=O)C(N)=O)c1ccccc1O | ? | -2% | ? | -3
Cc1c(/N=C/c2ccco2)n(Cc2ccccc2)c2ccccc12 | 2% | -3% | 1.1% | 4
Cc1ccc(-c2cc(C(=O)N3CCOCC3)c3ccccc3n2)cc1 | 1% | -17% | 1.5% | 2
CCC(=O)c1ccc(OCC(O)CN2CCc3ccccc3C2)cc1 (configuration not stated) | 4% | -2% | 2.9% | .
O=P(c1ccccc1)(c1ccccc1)C1CCCO1 (configuration not stated) | -6% | 1% | -0.6% | 1
C=C(C)CC(NCCc1ccccc1)c1ccco1 (configuration not stated) | 3% | -3% | 0.9% | -2
COc1cccc(-c2csc(N3CCN(C(=S)Nc4ccccc4)CC3)n2)c1 | -2% | -15% | ? | 14
Cc1c2cnn(CC(=O)O)c(=O)c2c(C)n1Cc1ccccc1 | ? | -1% | 2.3% | 0
COC(=O)[C@@]12CCCCN1[C@H](c1ccc(-c3ccc(OC)cc3)cc1)[C@H]1C(=O)N(C)C(=O)[C@H]12 | -19% | . | 0.9% | .
O=C(Oc1ccccc1)c1ccccc1C(=O)Oc1ccccc1 | -9% | . | -1.0% | .
COc1ccc(N(CC(=O)Nc2ccc(Cl)cc2)S(=O)(=O)c2c(C)n[nH]c2C)cc1 | -1% | 6% | -0.1% | .
Cc1[nH]c(=O)[nH]c(=O)c1S(=O)(=O)N1CCCC(C(=O)NCCC2=CCCCC2)C1 (configuration not stated) | -11% | 1% | 2.8% | 1[21.1 µM]
Cc1cccc(NC(=O)CN2CCN(C(=O)c3cncn3-c3ccc(F)cc3)CC2)c1C | -1% | . | 1.7% | .
Cc1ccc(N2C(=O)N(c3ccc(C)cc3)C3CS(=O)(=O)CC32)cc1 (configuration not stated) | 1% | -7% | -3.8% | 7
CCOC(=O)c1c(NC(=O)CSc2ncnc3ccccc23)sc(C(C)=O)c1C | -5% | 3% | 0.0% | -9
O=C(N=C1SC2CS(=O)(=O)CC2N1c1ccc(F)c(Cl)c1)C1CCCO1 (configuration not stated) | 8% | -4% | -1.1% | .
CCc1ccccc1N(C(=O)c1snc(C(N)=O)c1N)C(C(=O)NCC1CCCO1)c1ccc(N(C)C)cc1 (configuration not stated) | -7% | 0% | -1.3% | .
O=C(NCc1nnc(SCc2ccc(F)cc2)n1-c1ccccc1)C12CC3CC(CC(C3)C1)C2 | 2% | 24% | 2.9% | 2
Cc1ccc(CN2C(=O)CCC2C(=O)N2CCN(c3ccc(F)cc3)CC2)cc1 (configuration not stated) | -3% | 0% | 1.1% | 7
COc1ccc(NC(=O)Cn2nnc(C(=O)Nc3ccc(F)c(Cl)c3)c2N)cc1OC | -4% | -9%&-24% | -3.5% | .
CN(Cc1ccccc1)C(=O)CN(c1ccc(F)cc1)S(=O)(=O)c1ccc2c(c1)OCCO2 | 4% | 4% | 0.5% | 7
